# HNF4A DNA FP: change in binding of human HNF4 alpha to DNA; P41235; HNF4a-FITC DNA binding, fluorescence polarization, 1 h; activity change, % at 10 µM; actives 0.3% (n = 360,000); AID 1224865; in the data active = activity change above about 30%, passing the limit was not always enough;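 also: controls were the assay level and a saturating level of protein; the project sought stronger binding though the title names inhibitors; some compounds called inactive have numbers as strong as hits; positive values seem to mean higher polarization but the record does not say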
# Vif A3G: HIV-1 Vif–A3G interaction blockers – biochemical, TR-FRET, GST-Vif 1-94, biotin-A3G peptide, dose response retest, primary screen (AID 1117319); actives 0.57% (n = 260,000); TR-FRET GST-Vif / biotin-A3G peptide binding; higher % means a stronger effect; test concentration not given here; strong numbers were not always called active; inhibition, %; hits with a dose series show IC50 in µM;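 active = above the screen mean plus three standard deviations and confirmed in dose response; inconclusive = results disagree or hit not tested in dose response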;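 also: Vif residues 1-94 fused to GST binding biotinylated APOBEC3G peptide 110-148; 0% = full assay without inhibitor and 100% = GST in place of GST-Vif; retest series ran down from 100 µM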
# UCH37 DUB inh: human UCH37 deubiquitinating enzyme inhibition; inhibition, % (concentration not given with the values); actives 0.33% (n = 330,000); Q9Y5K5; AID 588478; purified proteasome/UCH37, Ub-AMC cleavage fluorescence;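 active = mean of two replicates above 20%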;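 also: 0% = compound-free wells with enzyme and 100% = wells lacking proteasome; stock transfer was 100 nL into about 20 µL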
# Target sequence (Q9Y5K5 whole entry, looked up): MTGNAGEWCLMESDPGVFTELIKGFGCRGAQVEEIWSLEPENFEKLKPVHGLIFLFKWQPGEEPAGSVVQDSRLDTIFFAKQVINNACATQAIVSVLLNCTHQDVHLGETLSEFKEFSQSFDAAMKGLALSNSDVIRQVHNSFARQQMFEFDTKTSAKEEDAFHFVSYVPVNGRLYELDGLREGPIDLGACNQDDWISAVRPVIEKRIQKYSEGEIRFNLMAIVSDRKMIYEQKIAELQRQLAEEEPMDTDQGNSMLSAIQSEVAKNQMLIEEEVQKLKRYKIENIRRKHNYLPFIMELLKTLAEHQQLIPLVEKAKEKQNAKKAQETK
#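 assay system = human UCH37 enzyme supplied as purified proteasome complex | amount = proteasome at 0.15 nM in the dispensed enzyme solution | schedule = 30 min compound-proteasome preincubation then 25 min substrate reaction, room temperature | measured by = fluorescence, ex 355 nm, em 460 nm | benchmarks = no-proteasome wells (full inhibition) and compound-free wells (no inhibition)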
# Ecoli growth: inhibitors of Escherichia coli growth; actives 0.21% (n = 330,000); OD600 absorbance (test concentration not listed); AID 1053175; OD600, 23 h; stronger effect = lower value;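 active = OD600 absorbance below the run mean of sample wells minus 3.6 SD, in any replicate, cut at about 0.56 in these data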;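 also: stock transfer was 300 nL into about 60 µL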
# LANA-H2A inh: blocks KSHV LANA binding to histone H2A/H2B. cell-free LANA-H2A/H2B peptide, fluorescence polarization. AID 2629. actives 0.6% (n = 320,000). inhibition, % (test concentration not listed); in the data active = inhibition mostly above about 10%, no sharp cut-off; inactive = mostly below about 6.7%;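 also: stock transfer was 7.5 nL into about 10 µL; 0% = median of vehicle wells and 100% = median of positive control wells; one replicate is shown; the record names a cut of 25% in any replicate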
# Bfl-1 A1 inh: inhibitors of the anti-apoptotic protein A1, read as caspase activation | MEF A1-2A-BIM cells, Caspase-Glo 3/7 luminescence, 3 h; percent of clofoctol response, vehicle zero | caspase activation, % (concentration not given with the values) | actives 0.066% (n = 330,000) | AID 2462;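 active = over half of replicate activation scores above 10%, or exactly half above 10 with the replicate mean above 10; inconclusive = replicate mean below 10 yet half the replicates above 10; inactive = over half of replicates below 10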;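 also: wells of about 30 µL received 50 nL stock; many hits fall short of the cut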
# Beta2AR agonist: agonists of human beta-2 adrenergic receptor inducing internalization | P07550 | actives 0.43% (n = 340,000) | AID 504454 | Am2.2-beta2AR cells, FAP receptor internalization, flow cytometry; reference of the scale not given here | response, % (concentration not given with the values);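 active = response above a set limit, near 3 SD of response in nonfluorescent compounds, cut at about 42% in these data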;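 also: stock transfer was 100 nL into about 11 µL; a reference agonist was the positive control; negative values mostly stem from fluorescent compounds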
# Target sequence (P07550 whole entry, looked up): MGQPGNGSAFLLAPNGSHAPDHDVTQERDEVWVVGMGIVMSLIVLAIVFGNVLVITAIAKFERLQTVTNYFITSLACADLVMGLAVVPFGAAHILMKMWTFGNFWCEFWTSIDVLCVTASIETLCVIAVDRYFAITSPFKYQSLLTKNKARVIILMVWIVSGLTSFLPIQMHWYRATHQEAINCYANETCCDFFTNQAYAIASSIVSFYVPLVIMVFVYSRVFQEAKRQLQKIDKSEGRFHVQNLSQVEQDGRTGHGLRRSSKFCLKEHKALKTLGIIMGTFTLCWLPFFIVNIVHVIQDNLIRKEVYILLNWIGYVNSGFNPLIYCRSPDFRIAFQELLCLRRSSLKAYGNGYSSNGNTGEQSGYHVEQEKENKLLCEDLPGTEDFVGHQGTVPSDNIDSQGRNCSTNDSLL
# Active calls of the source: *; i = inactive; ? = inconclusive; / = not tested or not shown.
SMILES,HNF4A DNA FP,Vif A3G,UCH37 DUB inh,Ecoli growth,LANA-H2A inh,Bfl-1 A1 inh,Beta2AR agonist
CCCCNC(=O)c1cc([N+](=O)[O-])[nH]n1,0.8,-3%,2.3,0.68,1.9,0.1,2
CC(=O)c1ccc(N2CCN(S(=O)(=O)c3cccc(S(=O)(=O)N4CCOCC4)c3)CC2)cc1,-1.2,-7%,1.9,0.76,0.2,-0.3,27
Cn1c(=O)cc(OCCCC(=O)NCCN2CCN(c3ccccc3F)CC2)c2ccccc21,0.9,11%,3.1,0.72,-1.1,-0.7,-2
O=C(NC1CCCCC1)C1CCN(S(=O)(=O)N2CCOCC2)CC1,-1.0,-2%,2.2,0.68,3.9,-0.5,-7
CCc1ccc(NC(=O)CSc2nc3ccsc3c(=O)n2CCCCCC(=O)O)cc1,1.9,4%,1.9,0.69,-1.7,0.0,-6
CCN1C(=O)/C(=C/c2ccc(N3CCCC3)cc2)NC1=S,148,/,4.2,0.67,-8.5,-0.1,-113
COc1ccc(CC(=O)Nc2cccc(Cl)c2C)cc1S(=O)(=O)N1CCOCC1,-1.3,-9%,2.7,0.69,-2.2,0.2,4
CCOc1ccc(N=C2SCC(=O)N2CC)cc1,-2.3,7%,2.2,0.65,1.4,-0.6,-3
Cc1cccc(C(=O)NCC2CCCO2)c1 (stereo unspecified),1.4,2%,1.5,0.8,-3.2,0.1,-2
CC(=O)c1c(OC(=O)c2ccccc2Br)ccc2c(C)cc(=O)oc12,1.5,-16%,-9.4,0.67,-3.1,0.4,6
COc1ccc2cc(C(=O)NCC3CCCO3)[nH]c2c1 (stereo unspecified),6.9,/,-4.9,0.65,1.5,-1.6,-2
Cc1ccc(OCCC(=O)OCC(=O)N2c3ccccc3CC2C)cc1 (stereo unspecified),0.2,10%,-2.3,0.66,1.6,0.0,4
CC(C)CSc1nc(N)nc2c1ncn2C1OC(CO)C(O)C1O (stereo unspecified),2.2,-7%,1.0,0.69,/,/,-1
CN1CCSc2ccc(C(=O)NCc3cccc(Br)c3)cc21,6.3,/,-129,0.72,-7.4,-0.4,0
OCC1(CCc2ccccc2)CCN(Cc2ccccc2Cl)CC1,0.9,0%,3.0,0.68,-3.3,1.6,-4
O=C(CNC(=O)c1ccccc1)N/N=C/C=C/c1ccccc1,-0.4,-5%,/,/,2.3,1.2,12
O=C(/C=C/c1ccco1)NC(=S)Nc1cccc([N+](=O)[O-])c1,-6.7,?,6.5,0.68,0.0,0.0,-6
CCCN1CCC(=O)N([C@H](CSc2ccc(C)cc2)c2ccccc2)CC1,-0.6,22%,0.9,/,-1.8,0.3,1
CCOc1ccc2nc(NC(=O)c3cccnc3)sc2c1,-0.6,-3%,-6.3,0.68,-0.1,-6.8,-7
Nn1c(Cc2cccc3ccccc23)nnc1SCn1nnc2ccccc2c1=O,1.1,5%,2.1,0.67,0.7,0.0,6
COc1ccc(S(=O)(=O)N(C)CC(=O)NC2CC2)cc1,-1.6,4%,5.4,0.69,-0.2,-0.2,-3
COc1ccc(NC(=O)C(Cc2ccccc2)n2cccc2)cc1 (stereo unspecified),3.3,/,2.2,0.63,-5.6,0.2,4
CCOc1ccccc1NC(=O)C1CCN(S(=O)(=O)c2c(C)noc2C)CC1,-1.4,30%,4.3,0.72,-5.8,0.5,7
COc1ccc(CN2C(=O)CC(Cc3ccc(C)cc3)C2=O)cc1OC (stereo unspecified),1.8,?,2.7,0.68,1.7,0.2,-10
Cc1ccc2c(c1)N(CC(=O)N1CCOCC1)C(=O)C(C)O2 (stereo unspecified),-1.8,4%,-0.5,0.67,2.7,0.8,6
CN(C(=O)CN1C(=O)S/C(=C\c2ccccc2)C1=O)C1CCS(=O)(=O)C1 (stereo unspecified),1.0,/,7.4,0.68,1.9,0.2,-1
NNC(=S)Nc1cc(S(=O)(=O)N2CCOCC2)ccc1N1CCOCC1,-2.8,-1%,2.3,0.73,-0.7,0.1,0
COc1cc(NC(=O)CN2C(=O)NC(CC(C)C)C2=O)cc(OC)c1OC (stereo unspecified),11,4%,2.1,0.68,1.4,-0.6,-11
Cc1ccc(-c2nc(NC(=O)CSc3nnnn3-c3ccccc3)ns2)cc1,-3.1,-95%,1.3,0.75,-5.8,-1.1,1
CCOC(=O)CNC(=O)c1ccccc1,-3.2,5%,-0.7,0.74,0.1,-0.3,5
COc1cc(/C=N/N=C(N)N)ccc1OCc1ccccc1Cl,4.1,-2%,/,/,0.3,-0.1,54*
Cc1ccnc(NC(=O)c2cccc(NS(=O)(=O)c3ccccc3C)c2)c1,-3.4,0%,3.3,0.79,/,/,-6
CC1=C(C(=O)Nc2cccnc2)C(c2cccnc2)n2ncnc2N1 (stereo unspecified),-3.1,25%,-0.1,0.7,3.8,1.1,4
O=C(Cn1cc(/C=N/NC(=O)c2cccc3ccccc23)c2ccccc21)Nc1ccc(F)cc1,46*,/,/,/,-2.4,0.4,21
COC(=O)C1=C(N)N(c2ccccc2F)C2=C(C(=O)CC(C)(C)C2)C1c1ccc(OC)c(OC)c1 (stereo unspecified),-1.1,3%,6.1,0.67,1.9,0.0,1
COc1cc(C=O)ccc1Oc1nnnn1-c1ccccc1,-1.5,15%,4.7,0.66,-5.3,0.2,-4
Cc1ccc(NC(=O)CCc2ccc(S(=O)(=O)N3CCOCC3)cc2)c(Cl)c1,-0.8,/,-1.7,0.65,8.5,-1.7,-2
CC(=O)Nc1ccc(Nc2cc(C)nc3c(-c4ccc(Cl)cc4)cnn23)cc1,1.3,/,-222,0.7,-0.4,-0.4,-7
CC(=O)c1ccc(-c2nnc(CCC(=O)N3CCCC(C(=O)CC(C)C)C3)o2)s1 (stereo unspecified),-1.4,/,0.8,0.71,1.6,-0.7,-14
Cc1cc[n+](-c2nc3ccccc3nc2[N-]S(=O)(=O)c2ccccc2)cc1,0.6,19%,-1.4,0.68,-1.7,0.6,-2
CCOC(=O)CNC(=S)N(CCCN1CCN(C)CC1)Cc1cccs1,0.9,5%,2.9,0.64,-3.6,0.9,0
Cc1cc(C)cc(OCC(=O)Nc2ccc(N3CCN(C(=O)c4ccco4)CC3)cc2)c1,-1.3,25%,-2.9,0.71,-5.1,-0.2,9
COc1ccc(CN(C(=O)c2oc3cc(C)c(C)cc3c2C)C2CCS(=O)(=O)C2)cc1OC (stereo unspecified),0.8,-4%,1.5,0.69,-4.6,-0.2,0
N#Cc1cccc(N=c2ssnc2Cl)c1,/,7%,5.9,0.67,/,/,8
CCCn1c(Nc2nc3ccccc3n2C)nc2ccccc21,19,30%,-12,0.64,-1.8,0.4,21
N#Cc1cc2c(=O)n3ccccc3nc2n(-c2ccccc2Cl)c1=O,0.8,/,i,0.66,10,0.5,-83
Cc1ccc(-c2nc(CN(C)Cc3ccc4nccnc4c3)c(C)o2)s1,3.1,19%,1.7,0.59,-8.2,-0.5,-3
Cc1ccc(S(=O)(=O)Nc2ccc(C(=O)NCc3cccnc3)cc2)cc1,-1.1,/,1.0,0.71,-12,1.0,3
COc1ccccc1OC(=O)Cc1cccc2ccccc12,-0.4,-5%,-1.9,0.69,-2.3,-0.5,5
COc1ccc(CNCc2cccc(Oc3ccccc3)c2)cc1,2.2,/,/,/,3.9,-0.7,-6
COc1cc(CNC2CCCCC2OC)cc(OC)c1OC (stereo unspecified),-1.7,1%,1.4,0.69,-2.0,-0.2,11
N#CC1=C(SCC(=O)Nc2ccccc2)NC(=O)CC1c1ccc(O)cc1 (stereo unspecified),2.3,8%,4.7,0.68,-0.7,-0.9,19
Cc1cc(S(=O)(=O)Nc2ccc(C(=O)NCC(c3ccccc3)N(C)C)cc2)ccc1F (stereo unspecified),-1.8,-1%,0.1,0.7,-3.0,0.1,1
CC(Sc1n[nH]c(N)n1)C(=O)Nc1ccc(Cl)cn1 (stereo unspecified),0.6,/,0.3,0.68,8.5,0.1,-3
Cc1ccc([N+](=O)[O-])cc1NC(=S)NC(=O)C(C)(C)C,-2.9,5%,2.5,0.69,-0.3,0.4,2
COc1ccc(CNC(=O)c2cc(-c3ccncc3)nc3c(C)cc(C)cc23)cc1OC,3.0,-9%,-16,0.7,-2.0,0.5,16
Cc1ccc(-c2nn3cnnc3c3ccccc23)cc1,2.3,-2%,3.5,0.66,0.5,1.5,-8
CC(C(=O)Nc1c2c(cc3c1CCC3)CCC2)N1CCCC1 (stereo unspecified),-3.8,4%,0.1,0.63,7.1,?,4
Cc1noc(NS(=O)(=O)c2ccc(NC(=O)CC34CC5CC(CC(Br)(C5)C3)C4)cc2)c1C,6.1,-2%,-0.3,0.66,8.5,0.2,5
Cn1c(SCC(=O)c2ccccc2)nnc1-c1ccccn1,3.8,6%,5.5,0.67,-1.6,-3.0,-13

# Additional records.
SMILES,HNF4A DNA FP,Vif A3G,UCH37 DUB inh,Ecoli growth,LANA-H2A inh,Bfl-1 A1 inh,Beta2AR agonist
Cc1cccc(NC(=O)CN(C2=NC3CS(=O)(=O)CC3S2)c2ccccc2F)c1 (stereo unspecified),0.7,/,3.3,0.74,-5.5,-0.5,1
Cc1ccc(-c2nc3sc4c(N)ncnc4c3c3c2CCCC3)cc1,-0.8,-9%,-2.7,0.76,3.3,0.0,8
Cc1ccc(C)c(OCC(=O)OCC(=O)Nc2c(C)nn(-c3ccccc3)c2C)c1,0.3,-1%,4.8,0.7,-5.0,0.3,5
CC(=O)Nc1sc(C)c(C)c1C(=O)OCC(=O)N(C)c1c(N)n(Cc2ccccc2)c(=O)[nH]c1=O,1.8,3%,1.2,0.69,0.4,0.6,0
Cc1ccc(C)c(C(=O)NCCN(C)C)c1,-0.9,-5%,2.2,0.72,1.6,1.1,4
O=C(NCCCCNC(=O)c1ccco1)c1ccco1,1.7,0%,-0.7,0.68,-3.6,-0.7,-6
CC(C)OC(=O)C1C2C=CC3(CN(Cc4cccs4)C(=O)C13)O2 (stereo unspecified),-1.2,8%,2.1,0.69,1.2,0.9,/
CC(=O)N1c2ccc(S(=O)(=O)NCC3CCC(C(=O)N4CCCCC4)CC3)cc2CC1C (stereo unspecified),4.6,3%,1.0,0.69,-0.1,0.6,1
C=CCNC(=S)Nc1sc2c(c1C(=O)OCC)CCN(C(=O)OCC)C2,4.0,?,-0.1,0.71,-2.6,0.0,2
O=C(Cn1cnc2ccccc21)OCC(=O)N1CCCc2ccccc21,0.9,-5%,5.5,0.7,3.8,0.7,8
O=C(CCn1nc(-c2ccc(Cl)cc2)ccc1=O)N1CCN(c2ccccn2)CC1,-0.7,-9%,0.6,0.73,/,/,-3
Cc1ccc(-n2ncc3c2CCCC3NC(=O)CCc2cnn(C)c2)cc1C (stereo unspecified),0.7,/,0.7,0.67,2.0,0.0,-2
CS(=O)(=O)N(CC(=O)N1CCN(c2ccc(F)cc2)CC1)c1cccc(Cl)c1,6.4,?,1.8,0.7,3.3,1.1,-5
COc1ccc2c(c1)SC1=NCCS(=O)(=O)N12,1.0,14%,3.7,0.69,0.2,0.5,-2

# An excerpt from above, reduced to Ecoli growth and Beta2AR agonist:
structure,Ecoli growth,Beta2AR agonist
O=C(Cn1cnc2ccccc21)OCC(=O)N1CCCc2ccccc21,0.7,8
O=C(CCn1nc(-c2ccc(Cl)cc2)ccc1=O)N1CCN(c2ccccn2)CC1,0.73,-3
Cc1ccc(-n2ncc3c2CCCC3NC(=O)CCc2cnn(C)c2)cc1C (stereo unspecified),0.67,-2

# Bioassay records deposited in PubChem by several laboratories.
